Compound activity (PubChem BioAssay)
Polio RdRp inh = poliovirus RdRp elongation inhibitors, primary screen, biochemical, fluorescence polarization, total intensity; Genome polyprotein (Poliovirus type 1 (strain Mahoney)), P03300; poliovirus polymerase elongation; active compounds read low; % elongation, % (compound at 16.7 µg/mL); 0.66% of 150,000 active; in the data active means % elongation below about 90%; further: some results filed as inactive read as strong as hits
Target sequence (P03300 1749-2209 limits assumed): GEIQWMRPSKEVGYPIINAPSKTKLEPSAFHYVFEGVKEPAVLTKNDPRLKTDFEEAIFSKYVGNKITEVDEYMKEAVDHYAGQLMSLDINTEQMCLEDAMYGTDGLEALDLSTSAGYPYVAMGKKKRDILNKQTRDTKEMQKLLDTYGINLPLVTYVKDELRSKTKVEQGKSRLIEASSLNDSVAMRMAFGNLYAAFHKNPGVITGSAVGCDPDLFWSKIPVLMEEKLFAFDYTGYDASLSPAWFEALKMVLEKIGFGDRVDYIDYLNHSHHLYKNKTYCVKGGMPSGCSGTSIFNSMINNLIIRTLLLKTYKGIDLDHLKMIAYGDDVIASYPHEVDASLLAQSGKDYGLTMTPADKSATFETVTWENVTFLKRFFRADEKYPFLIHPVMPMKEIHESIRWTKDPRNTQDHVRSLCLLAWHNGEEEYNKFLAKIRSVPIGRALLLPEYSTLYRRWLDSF
Polio RdRp inh intensity = also measured in Polio RdRp inh; calls as there; % elongation; measured here: total intensity read-out; formula for this scale not given here;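 total fluorescence in place of polarization; lower means less elongation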
Starred values were filed as active, the others as inactive. The list is partial; count on the stated rates, not on these rows.

SMILES	Polio RdRp inh	Polio RdRp inh intensity
CCOc1ccc(NC(=O)CSc2nnc(-c3ccncc3)n2-c2ccccc2)cc1	101.0	101.0
CCCc1nnc(NC(=O)Cc2coc3cc(C)cc(C)c23)s1	122.0	122.0
Cc1ccccc1C(=O)OCc1cc(=O)n2c(C)csc2n1	104.0	96.0
CCOC(=O)CC(NC(=O)c1cc2c(=O)n3cccc(C)c3nc2s1)c1ccc(OCC(C)C)c(OC)c1 (stereo not given)	103.0	103.0
Cc1cc(-c2nc3ccccc3s2)ccc1NC(=O)c1cc(Cl)ccc1Cl	101.0	104.0
CCCCOC(=O)c1ccc(NC(=O)CC2NCCNC2=O)cc1 (stereo not given)	109.0	108.0
CCOc1ccc(CNS(=O)(=O)c2cc3c(cc2C)NC(=O)CO3)cc1OC	101.0	103.0
COc1ccc(S(=O)(=O)N2Cc3ccccc3CC2C(=O)Nc2ccc(C)cc2)cc1OC (stereo not given)	104.0	110.0
COc1ccc(C2c3c(n(C)c4ccccc34)C(=O)N2CC(=O)Nc2cc(Cl)ccc2C)cc1 (stereo not given)	107.0	108.0
CCOc1ccccc1NC(=O)CN1C(=O)COc2ccc(S(=O)(=O)N3CCCCCC3)cc21	114.0	117.0
COc1cc(OC)cc(C(=O)Nc2ccc(S(=O)(=O)Nc3ncccn3)cc2)c1	100.0	102.0
CCN(C(=O)CSc1nc(-c2ccccc2)no1)c1ccccc1	114.0	110.0
COc1cc(CNC(=O)c2cc3n(n2)CCCN(Cc2ccc(C)cc2)C3=O)cc(OC)c1OC	108.0	109.0
CCc1ccc(NS(=O)(=O)c2ccc3[nH]cc(C(=O)NCCc4ccccc4)c(=O)c3c2)cc1	108.0	106.0
Cc1nnc(SCc2cc(=O)n3cccc(C)c3n2)s1	105.0	110.0
O=C1CN(C(=O)COc2ccc(Cl)cc2)C(c2ccc(F)cc2)c2cc(Br)ccc2N1 (stereo not given)	101.0	104.0
CCn1cc2nc(SCC(=O)Nc3cc(OC)ccc3OC)n(Cc3ccc(Cl)cc3)c(=O)c2n1	106.0	114.0
CC(=O)c1cccc(NC(=O)C(C)n2c(=O)cc(-c3ccccc3)c3c(C)nn(C)c32)c1 (stereo not given)	97.0	94.0
O=c1cc2nc(-c3cccs3)nc(SCCOc3ccc(Cl)cc3)n2[nH]1	108.0	111.0
O=S(=O)(c1ccccc1)c1nc(-c2ccccc2)oc1N1CCN(c2cccc(Cl)c2)CC1	101.0	101.0
CCNC(=O)CC1C(=O)N(c2ccc(F)cc2)C(=O)N1Cc1ccc(C)cc1 (stereo not given)	104.0	104.0
COc1ccc(N(C)C(=O)c2nc(-c3cccc(F)c3)n3c2CCCCC3)c(OC)c1	121.0	116.0
COC(=O)Cn1nc(C)c2c(C)n(-c3ccccc3)nc2c1=O	108.0	114.0
Cc1ccc(C)c(CSc2nnc3[nH]c(=O)cc(C)n23)c1	102.0	101.0
Cc1ccc(N2CCN(S(=O)(=O)c3ccc(-n4cnnn4)cc3)CC2)c(C)c1	108.0	107.0

Next section:
SMILES	Polio RdRp inh	Polio RdRp inh intensity
CCC1CN(C(=O)NCc2ccc(F)cc2)c2cc(Cl)ccc2O1 (stereo not given)	107.0	112.0
Cc1cccc(CSc2ncc(Cl)c(C(=O)Nc3nnc(C)s3)n2)c1	102.0	96.0
Cc1cc(NC(c2nnc(-c3ccccc3)o2)c2ccccc2F)ccc1Br (stereo not given)	109.0	110.0
Cc1ccc(CCNS(=O)(=O)c2ccc3c(c2)CCN3C(=O)CCC(=O)O)cc1	113.0	108.0
COCCn1c(=O)[nH]c2cc(C(=O)N3CCN(c4ccc(Cl)cc4)CC3)ccc2c1=O	105.0	108.0
COc1cc(OC)c(NC(=O)Cn2cnc3nc4c(cc3c2=O)CCCC4)cc1Cl	107.0	112.0
CCc1ccccc1NC(=O)C1CCN(C2=NS(=O)(=O)C(c3ccc(C)c(C)c3)=C2C)CC1	107.0	114.0
CCOC(=O)c1ccccc1NC(=O)N(C)CCc1c(C)nn(CC)c1C	111.0	116.0
CC1CN(C(=O)N2CCC(C(=O)NCc3ccco3)CC2)c2cc(Cl)ccc2O1 (stereo not given)	114.0	115.0
O=C(Nc1ccc(F)cc1)c1cc2cc3ccc(Cl)cc3nc2o1	106.0	103.0
CCc1ccc(CN(Cc2ccco2)C(=O)c2cc(-c3ccc(C)c(F)c3)on2)cc1	107.0	96.0
Cc1ccc(S(=O)(=O)C(CNC(=O)C(=O)NCCc2ccc(Cl)cc2)c2cccs2)cc1 (stereo not given)	104.0	104.0
COc1ccc(-n2cc(C(=O)NCc3ccccc3Cl)c3ccccc3c2=O)cc1	111.0	108.0
Cc1ccc(Cl)cc1N1CCN(CCCNc2ncnc3onc(-c4ccc(F)cc4)c23)CC1	103.0	109.0
COC(=O)C(CCSC)Nc1ncnc2onc(-c3ccc(F)cc3)c12 (stereo not given)	102.0	104.0
O=C(NCc1ccc(Cl)cc1)c1ccc2c(Cl)c3c(nc2c1)CCCC3	105.0	109.0
COc1ccc(Nc2nc3ccccc3nc2NS(=O)(=O)c2ccc(C)cc2)c(OC)c1	102.0	111.0
CCOC(=O)N1CCC(NC(=O)c2cnn(-c3ccc(C)cc3C)c2C2CCN(C(=O)OC(C)(C)C)CC2)CC1	110.0	100.0
CCc1nn(CC(=O)Nc2ccc(C)c(F)c2)c(=O)c2cc3cc(C)ccc3n12	110.0	105.0
CN1C(=O)Cc2cc(S(=O)(=O)NCCc3ccccc3)ccc21	103.0	100.0
Cc1cccc(Nc2c(-c3ccsc3)nc3nc(C)cc(C)n23)c1	108.0	105.0
Cc1ccc(NC(=O)CCCn2c3ccccc3c(=O)c3cc(C)ccc32)c(Br)c1	104.0	109.0
CC(C)n1cnc(S(=O)(=O)N2CCCC(C(=O)NCc3ccccc3Cl)C2)c1 (stereo not given)	103.0	103.0
COc1ccc(-c2nc3nc(C)cc(N4CCN(c5cccc(C(F)(F)F)c5)CC4)n3n2)cc1	106.0	107.0
CC(=O)c1cccc(Nc2c3c(nc4nc(-c5cccs5)nn24)CCCC3)c1	108.0	110.0

An excerpt of these results, in markdown.
| molecule | Polio RdRp inh | Polio RdRp inh intensity |
| --- | --- | --- |
| CCc1ccc(CN(Cc2ccco2)C(=O)c2cc(-c3ccc(C)c(F)c3)on2)cc1 | 107.0 | 96.0 |
| COCCn1c(=O)[nH]c2cc(C(=O)N3CCN(c4ccc(Cl)cc4)CC3)ccc2c1=O | 105.0 | 108.0 |

Next part:
SMILES	Polio RdRp inh	Polio RdRp inh intensity
Cc1cccc(Cn2c(-c3cccc(Br)c3)nc3ccccc32)c1	105.0	98.0
COc1ccc(C(=O)Nc2nc3n(n2)C(c2ccc(Cl)cc2)C=C(c2ccccc2)N3)cc1OC (stereo not given)	82.0	233.0
Cc1cccc(N2CCN(C(=O)CCSCc3ccccc3F)CC2)c1C	108.0	112.0
NC(=O)CSc1nc2cc3c(cc2c(=O)n1CCCCCC(=O)NCc1ccc2c(c1)OCO2)OCO3	106.0	112.0
O=C(C1CC1)N1CCc2cc(Br)cc(S(=O)(=O)N3CCN(c4cccc(Cl)c4)CC3)c21	109.0	110.0
CCc1ccccc1NC(=O)c1ccc2c(c1)nnn2C1CCCC1	102.0	100.0
CC(=O)N1CCc2c(sc(NC(=O)CSc3ccccc3)c2-c2nc3ccccc3s2)C1	99.0	96.0
O=C(CSC1=Nc2ccccc2N=C(c2ccc(F)cc2)C1)NCc1ccccc1Cl	107.0	108.0
COc1ccc(-n2nc(C(=O)O)c(=O)n(C)c2=O)cc1	105.0	110.0
CCOc1ccc(OCC)c(NC(=O)C2CCN(S(=O)(=O)c3ccc(Br)s3)CC2)c1	109.0	108.0
CCN(CC)c1cc2c(cc1F)c(=O)c(S(=O)(=O)c1cccc(C)c1)cn2C	110.0	109.0
COc1ccc(Cl)cc1NC(=O)N1CCC2(CC1)Oc1ccccc1C(=O)N2Cc1ccc(F)cc1	101.0	107.0
CCOc1ccc(-n2nc(CO)c(C(=O)NCc3ccc(Cl)cc3)n2)cc1	105.0	105.0
CCc1ccc(C(=O)CC2(O)C(=O)N(CCc3ccccc3)c3ccc(Br)cc32)cc1 (stereo not given)	108.0	110.0
CC(C)Oc1ccc(CNC(=O)C(C)n2ccc3cc(S(=O)(=O)N4CCCCCC4)ccc32)cc1 (stereo not given)	104.0	112.0
COc1ccc(Cl)cc1N(C)C(=O)Cc1noc2ccc(C)cc12	110.0	109.0
O=C(C1CCN(c2ncnc3c2nc2n3CCCCC2)CC1)N1CCN(c2cccc(Cl)c2)CC1	103.0	99.0
COc1cccc([C@@H]2Nc3ccc(C(=O)O)cc3[C@@H]3C=CC[C@@H]32)c1OC	99.0	108.0
Clc1ccc(-c2nc3ccccn3c2Nc2ccc3c(c2)OCCO3)s1	106.0	108.0
O=C(COc1ccccc1Cl)OCc1cc(=O)n2nc(C3CCCCC3)sc2n1	111.0	115.0
Cc1nc2cccnc2n1C1CCN(S(=O)(=O)N(C)C)CC1	112.0	109.0
CCc1nn2c(=O)cc(COC(=O)c3ccccc3NC(=O)COc3ccc(F)cc3)nc2s1	105.0	101.0
COC(=O)c1ccc(OCC(O)Cn2cnc3cc(C)c(C)cc32)cc1 (stereo not given)	106.0	111.0
CCCn1c(=O)c2sccc2n2c(CCCC(=O)N3CCN(c4cccc(Cl)c4)CC3)nnc12	121.0	118.0
Cc1ccccc1NC(=O)c1c(C)oc2ccc(O)c(CN3CCCC(C)C3)c12 (stereo not given)	105.0	93.0

For reference, some entries already given:
SMILES	Polio RdRp inh	Polio RdRp inh intensity
CC(=O)c1cccc(Nc2c3c(nc4nc(-c5cccs5)nn24)CCCC3)c1	108.0	110.0
Cc1cccc(Cn2c(-c3cccc(Br)c3)nc3ccccc32)c1	105.0	98.0
COc1ccc(C(=O)Nc2nc3n(n2)C(c2ccc(Cl)cc2)C=C(c2ccccc2)N3)cc1OC (stereo not given)	82.0	233.0
Cc1cccc(N2CCN(C(=O)CCSCc3ccccc3F)CC2)c1C	108.0	112.0
NC(=O)CSc1nc2cc3c(cc2c(=O)n1CCCCCC(=O)NCc1ccc2c(c1)OCO2)OCO3	106.0	112.0
O=C(C1CC1)N1CCc2cc(Br)cc(S(=O)(=O)N3CCN(c4cccc(Cl)c4)CC3)c21	109.0	110.0
CCc1ccccc1NC(=O)c1ccc2c(c1)nnn2C1CCCC1	102.0	100.0
CC(=O)N1CCc2c(sc(NC(=O)CSc3ccccc3)c2-c2nc3ccccc3s2)C1	99.0	96.0
O=C(CSC1=Nc2ccccc2N=C(c2ccc(F)cc2)C1)NCc1ccccc1Cl	107.0	108.0
COc1ccc(-n2nc(C(=O)O)c(=O)n(C)c2=O)cc1	105.0	110.0
CCOc1ccc(OCC)c(NC(=O)C2CCN(S(=O)(=O)c3ccc(Br)s3)CC2)c1	109.0	108.0
CCN(CC)c1cc2c(cc1F)c(=O)c(S(=O)(=O)c1cccc(C)c1)cn2C	110.0	109.0
COc1ccc(Cl)cc1NC(=O)N1CCC2(CC1)Oc1ccccc1C(=O)N2Cc1ccc(F)cc1	101.0	107.0
CCOc1ccc(-n2nc(CO)c(C(=O)NCc3ccc(Cl)cc3)n2)cc1	105.0	105.0
CCc1ccc(C(=O)CC2(O)C(=O)N(CCc3ccccc3)c3ccc(Br)cc32)cc1 (stereo not given)	108.0	110.0
CC(C)Oc1ccc(CNC(=O)C(C)n2ccc3cc(S(=O)(=O)N4CCCCCC4)ccc32)cc1 (stereo not given)	104.0	112.0
COc1ccc(Cl)cc1N(C)C(=O)Cc1noc2ccc(C)cc12	110.0	109.0
O=C(C1CCN(c2ncnc3c2nc2n3CCCCC2)CC1)N1CCN(c2cccc(Cl)c2)CC1	103.0	99.0
COc1cccc([C@@H]2Nc3ccc(C(=O)O)cc3[C@@H]3C=CC[C@@H]32)c1OC	99.0	108.0
Clc1ccc(-c2nc3ccccn3c2Nc2ccc3c(c2)OCCO3)s1	106.0	108.0
O=C(COc1ccccc1Cl)OCc1cc(=O)n2nc(C3CCCCC3)sc2n1	111.0	115.0
Cc1nc2cccnc2n1C1CCN(S(=O)(=O)N(C)C)CC1	112.0	109.0
CCc1nn2c(=O)cc(COC(=O)c3ccccc3NC(=O)COc3ccc(F)cc3)nc2s1	105.0	101.0

(more compounds)
SMILES	Polio RdRp inh	Polio RdRp inh intensity
CCCCn1c(=O)n(-c2ccc(Br)cc2F)c(=O)c2c3c(sc21)CN(C(C)=O)CC3	99.0	104.0
CCCN(CCC)CCCNC(=O)Cn1cnc2onc(-c3ccc(F)cc3)c2c1=O	110.0	104.0
Cn1c(-n2cccc2)c(-c2c(-c3ccc(F)cc3)[nH]c3c2c(=O)[nH]c(=O)n3C)c(=O)[nH]c1=O	102.0	109.0
CCOc1ccccc1CNC(=O)CN1C(=O)C2CCCCN2c2ccc(C(=O)N(C)C)cc21 (stereo not given)	120.0	120.0
CCC(=O)N1CCc2cc(S(=O)(=O)NCCC(=O)Nc3cccc(SC)c3)ccc21	108.0	113.0
COc1ccc(N2CCN(C(=O)c3cc(S(=O)(=O)N4CCCCCC4)cn3C)CC2)cc1	105.0	106.0
CCc1ccc2oc(C(=O)Nc3cccc(Cl)c3C)cc(=O)c2c1	105.0	104.0
CC(C)c1ccc2oc(-c3ccc(Cl)c(NC(=O)Cc4ccccc4)c3)nc2c1	105.0	107.0
CCc1cc2c(cc3c(=O)n(CC(=O)NC(C)C)nc(CC)n32)s1	109.0	113.0
CSc1ncc(C(=O)NCc2cccc(Br)c2)c(-c2ccccc2)n1	101.0	107.0
O=C1C(c2cccc(Br)c2)N(CCc2ccccc2)C(=O)CN1C1CCCCC1 (stereo not given)	103.0	105.0
CCOc1ccc(CCNC(=O)Cn2c(-c3cccs3)cc3cc(F)ccc32)cc1OCC	110.0	112.0
COc1ccc(OC)c(C(C)NC(=O)Cn2c(=O)cc(C)c3c(C)nn(-c4ccc(C)cc4)c32)c1 (stereo not given)	104.0	102.0
